GLA inh pH 4.5: alpha-galactosidase A (human) inhibition, pH 4.5; activity change, negative = inhibition, % at 105 µM; purified enzyme, 4-MU-alpha-Gal fluorescence, pH 4.5; P06280; 230,000 tested, under 10 active; AID 1467; inconclusive = small, poorly fitted or top-dose-only inhibition, or a rising curve; inactive = flat fitted curve, though single readings scatter; no compound was filed as active;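 note: 0% = full activity with enzyme and -100% = basal without enzyme; dose as in the result columns while the protocol names 77 µM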
Rango dissoc inh: inhibitors of RanGTP-induced Rango-importin beta complex dissociation; Potency, µM (highest dose often 46.1 µM), without a hit: top-dose activity change, negative = inhibition; hit rate 0.071% among 340,000; O95149+P62826; Biochemical FRET Rango-importin beta, RanGTP-induced dissociation; active means falling FRET ratio curve, often poorly fitted, with flat reads before Ran was added; inconclusive means other falling curves, or compound fluorescence or quenching; inactive means flat or rising ratio curve;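 note: potency is the fitted concentration of half-maximal effect; % of control where 0% means no effect; nearly all actives have a fitted effect of over 45% in size; -100% = wells without RanGTP and RCC1; the record marks most hits as doubtful in a second field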
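Compounds preincubate 5 min with complex of recombinant Rango and importin beta in PBS with 1 mM DTT. Ran (0.6 uM) loaded with 2 mM GTP plus 0.2 uM RCC1 starts dissociation; FRET is recorded 45 min later.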
Rango complex inh: inhibitors of Rango-importin beta complex formation; hit rate 0.031% among 340,000; Rango CFP/YFP FRET sensor + importin beta, 45 min; Q14974; Potency, µM (top dose mostly 92.2 µM), for inactives: top-dose inhibition of complex formation; AID 540263; active = rising FRET ratio curve, often small or poorly fitted; inconclusive = mostly compound fluorescence or quenching in the first reads; inactive = flat curves in all reads;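 note: potency is the fitted concentration of half-maximal effect; 0% = DMSO wells and 100% = buffer wells lacking importin beta; nearly all actives have a fitted effect of over 15% in size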
Target sequence (Q14974 whole entry, looked up): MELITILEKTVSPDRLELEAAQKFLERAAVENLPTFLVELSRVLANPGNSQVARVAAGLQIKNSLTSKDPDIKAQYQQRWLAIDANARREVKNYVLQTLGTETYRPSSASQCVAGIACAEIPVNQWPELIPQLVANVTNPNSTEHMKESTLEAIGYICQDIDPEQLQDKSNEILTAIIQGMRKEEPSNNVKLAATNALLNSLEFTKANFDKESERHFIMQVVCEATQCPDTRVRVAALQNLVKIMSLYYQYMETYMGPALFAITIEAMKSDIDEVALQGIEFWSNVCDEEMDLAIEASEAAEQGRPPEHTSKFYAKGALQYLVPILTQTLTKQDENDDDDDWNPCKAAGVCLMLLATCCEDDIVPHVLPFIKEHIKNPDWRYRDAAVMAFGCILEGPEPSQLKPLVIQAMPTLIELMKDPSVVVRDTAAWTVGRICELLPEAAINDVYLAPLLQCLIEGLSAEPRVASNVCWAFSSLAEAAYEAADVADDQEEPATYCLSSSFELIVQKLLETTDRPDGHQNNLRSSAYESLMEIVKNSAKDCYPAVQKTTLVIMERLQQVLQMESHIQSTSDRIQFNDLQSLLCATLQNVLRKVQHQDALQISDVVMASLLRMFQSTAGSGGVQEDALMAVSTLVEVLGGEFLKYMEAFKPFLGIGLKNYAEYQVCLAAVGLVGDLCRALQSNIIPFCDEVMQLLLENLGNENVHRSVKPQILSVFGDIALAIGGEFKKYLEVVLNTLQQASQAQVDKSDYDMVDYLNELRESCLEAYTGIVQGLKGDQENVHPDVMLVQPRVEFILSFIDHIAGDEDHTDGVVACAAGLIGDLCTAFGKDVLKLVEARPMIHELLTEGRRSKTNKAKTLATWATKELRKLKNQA
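Inhibition scored from the CFP 486 nm/YFP 530 nm FRET ratio 45 min after adding 0.125 microM importin beta to 50 nM Rango biosensor preincubated 5 min with compound (room temperature, PBS with DTT, Tween-20, BSA). No-importin wells as positive control.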
miR-21 reporter: miR-21 reporter, rising signal. HeLa miR-21 FLuc reporter, luciferase, 48 h. Potency, µM (titrated, usually from 38.3 µM), without a hit: top-dose reporter change, positive = more light. 340,000 tested, under 10 active. AID 2288; active = well fitted rising curve with a large enough effect; inconclusive = small, poorly fitted or top-dose-only effect; inactive = no such curve, though single readings can be large or run the other way;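 note: % of control where 0% means no effect; miR-21 action dims this reporter so a rising signal means less miR-21 action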
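Using DMEM plus 10% FBS, HeLa miR-21-FLuc cells are incubated with test compounds (final up to about 40uM) for 48 hours; firefly luciferase signal is then imaged following reagent-mediated lysis.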
Active calls of the source: *; ? = inconclusive; / = not tested or not shown; & = joins results of further samples; [ ] = remark or other dose. An excerpt, so the mix of outcomes need not match the whole.

SMILES	GLA inh pH 4.5	Rango dissoc inh	Rango complex inh	miR-21 reporter
Cc1c(CCC(=O)O)c(=O)oc2c(C)c3occ(-c4ccc(Cl)cc4)c3cc12	/	-3%	-0.4%	-7%
COc1ccc2c(/C=N/NS(=O)(=O)c3ccc(C)cc3)c[nH]c2c1	-1	-3%	0.0%	1%
O=C(CN1CCOCC1)NCCc1ccccc1	/	-9%	-2.2%	-8%
O=C(O)c1cc(S(=O)(=O)O)cc(Nc2c3ccccc3nc3ccccc23)c1O	/	?	?	-9%
O=c1[nH]c(CN2CCN(c3ccc([N+](=O)[O-])cc3)CC2)nc2ccsc12	-5	-18%	0.1%	21%
COCCn1c(SCC(=O)Nc2ccccc2OC)nc2c([nH]c3ccccc32)c1=O	/	-11%	-1.4%	0%
Cc1ccc(N2CCN(S(=O)(=O)c3ccc4oc(=O)ccc4c3)CC2)c(C)c1	/	5%	-1.0%	3%
CCCNC(=O)NC(C(=O)OC)C12CC3CC(CC(C3)C1)C2 (configuration not stated)	5	14%	?	-11%
COc1ccc(CCNC(=O)CSc2cccc3cccnc23)cc1OC	-4	16%	2.1%	-11%
CC(=O)c1cccc(NC(=O)COC(=O)c2ccc(S(C)(=O)=O)c([N+](=O)[O-])c2)c1	6	1%	-3.3%	5%
O=C(NCCC1=CCCCC1)c1cc(S(=O)(=O)N2CCOCC2)c(Cl)cc1Cl	/	-3%	-0.2%	/
Cc1ccc(NC(=O)COC(=O)C2CC2)cc1S(=O)(=O)N1CCOCC1	/	2%	-1.5%	/
N#CCCN(CCN1CCCC1)S(=O)(=O)c1ccc(-c2ccc([N+](=O)[O-])cc2)cc1	-10	-8%	0.2%	5%
Cc1nc(CN(C)Cc2nc(Cc3ccccc3Cl)no2)cs1	-5	-2%	0.1%	-16%
N#Cc1ccccc1NC(=O)COC(=O)c1ccc2c(c1)OCO2	/	0%	-0.3%	/
O=C(/C=C/c1ccco1)Nc1ccc(C(=O)N2CCOCC2)cc1	-1	1%	-0.4%	-24%
Fc1cnc(N2CCOCC2)nc1N1CCc2ccccc21	-6	2%	0.1%	-55%
COc1cc(NC(=O)NCc2ccncc2)cc(OC)c1OC	4	-12%	0.4%	-2%
COc1cccc(NC(=S)N/N=C2\CC3CCC2(C)C3(C)C)c1 (configuration not stated)	-11	20%	-0.6%	-52%
Cc1ccc(C2(C)NC(=O)N(CC(=O)Nc3ccccc3C(=O)NC3CCCC3)C2=O)cc1 (configuration not stated)	/	10%	-3.1%	/
Cc1[nH]nc2c1C(c1ccc(F)cc1)C1=C(CC(C)(C)CC1=O)N2 (configuration not stated)	0	-10%	-1.0%	-5%
CCc1ccc(NC(=S)NC2CC3CCCC(C2)N3Cc2cccs2)cc1 (configuration not stated)	-2	-14%	-0.8%	20%
Cn1cccc1Cc1nnc(SCC(=O)NCC2CCCO2)n1C (configuration not stated)	-2	11%	-1.2%	0%
CCOC(=O)C1CCCN(C(=O)CCCn2nnnc2CN2CCOCC2)C1 (configuration not stated)	/	-13%	-1.2%	0%
C=CCOC(=O)C1=C[C@@H](c2ccc(C(F)(F)F)cc2)C[C@@H](OCc2ccc(CO)cc2)O1	/	3%	-2.7%	/
COc1cc(/C=c2\sc3n(c2=O)CCCN=3)ccc1O	-2	-3%	0.6%	-39%
CC(c1ccccc1)N1CC(C(=O)N2CCN(Cc3ccc(C#N)cc3)CC2)CC1=O (configuration not stated)	/	-3%	-3.0%	/
CC1CC(C)CN(C(=O)Cc2c(C(=O)O)[nH]c3ccc(Cl)cc23)C1 (configuration not stated)	-9	-10%	2.6%	-11%
Nc1nonc1-n1nnc(C(=O)N/N=C/c2ccccc2)c1CSc1ccccc1	-4	-16%	-0.2%	3%
COCC(=O)N1CCC(Oc2ccc(C(=O)NCc3cnc(C)cn3)cc2)CC1	-10	7%	-0.6%	-3%
Cc1noc(C)c1S(=O)(=O)Nc1ccc2c(c1)C(=O)N([C@H](C)CO)C[C@H](C)[C@@H](CN(C)Cc1ccc(C(=O)O)cc1)O2	/	1%	1.2%	/
Nc1nncn1C(=O)CCCN1C(=O)c2ccccc2C1=O	5	19%	5.2%	-4%
O=C(Nc1cc(-c2ccccc2)[nH]n1)c1ccccc1	-5	-22%	0.0%	3%
Cc1nc(N2CCOCC2)[nH]c(=O)c1[N+](=O)[O-]	-4	2%	-0.1%	-1%
O=S(=O)(Nc1ccn(-c2ccccc2)n1)c1ccc(Br)cc1	-2	-14%	-3.8%	-46%
CCCCN(C)S(=O)(=O)c1cc2c3c(c1)CCC(=O)N3CCC2	/	-8%	-3.6%	-4%

The list goes on, overlapping the part above by 5 compounds.
SMILES	GLA inh pH 4.5	Rango dissoc inh	Rango complex inh	miR-21 reporter
Nc1nncn1C(=O)CCCN1C(=O)c2ccccc2C1=O	5	19%	5.2%	-4%
O=C(Nc1cc(-c2ccccc2)[nH]n1)c1ccccc1	-5	-22%	0.0%	3%
Cc1nc(N2CCOCC2)[nH]c(=O)c1[N+](=O)[O-]	-4	2%	-0.1%	-1%
O=S(=O)(Nc1ccn(-c2ccccc2)n1)c1ccc(Br)cc1	-2	-14%	-3.8%	-46%
CCCCN(C)S(=O)(=O)c1cc2c3c(c1)CCC(=O)N3CCC2	/	-8%	-3.6%	-4%
Cc1ccc(C(C)C)c(OCC(=O)NNC(=O)C2CSC3(C)CCC(=O)N23)c1 (configuration not stated)	/	0%	4.0%	/
CCCOc1ccc(C(F)(F)F)cc1NC(=O)C1CC(=O)N(Cc2ccco2)C1 (configuration not stated)	/	-4%	2.1%	/
Cc1cccc(C)c1NC(=O)CNC(=O)c1c(-c2ccccc2)noc1C	/	11%	-0.5%	/
COCC1CCN(Cc2cn[nH]c2-c2cc(OC)c(OC)c(OC)c2)CC1	-23	-5%	7.2%	6%
N/C(=N\OC(=O)CC1CCCCC1)c1cccc(Br)c1	/	-7%	-0.1%	-11%
O=C(O)C1=CCCNC1	3&-1&-10	-1%	-2.4%	/
COc1ccccc1C(=O)NNC(=O)c1ccc2ccccc2c1	/	2%	?	-25%
Cc1ccc(C(=O)NNC(=O)C2CCN(S(=O)(=O)c3ccc(C)cc3)CC2)cc1	3	7%	2.5%	-1%
COc1cc2c(cc1OC)CN(C(=O)/C=C/c1cc(OC)c(OC)c(OC)c1)CC2	/	7%	-3.3%	9%
COc1ccc(-n2ncc3c(=O)n(CC(=O)NC(C)C)cnc32)cc1	/	3%	-1.8%	2%
Cc1ccc(S(=O)(=O)NCc2ccc(C(=O)NCCCN3CCN(C)CC3)cc2)cc1	5	-8%	-0.7%	-8%
COc1cc(NC(=O)CSc2nc3ncnc(N)c3[nH]2)c(C(=O)O)cc1OC	/	6%	-3.5%	11%
COCCCNC1=C(Cl)C(=O)c2ccccc2C1=O	-18	-2%	2.4%	-3%
Nc1ccc(C(=O)OCC(=O)Nc2ccc([N+](=O)[O-])cc2C(F)(F)F)cc1	-4	24%	4.3%	-14%
COc1cccc(C(CCc2cc(OC)c(OC)c(OC)c2)NC(C)=O)c1 (configuration not stated)	/	15%	-1.6%	/
CSc1ccc(CN(C)CC(=O)NC(=O)NC(C)(C)C)cc1	-11	9%	0.1%	-5%
Cc1nc(-c2coc3cc(O)c(C)cc3c2=O)cs1	-2	-11%	-0.7%	3%
Cc1ccccc1NC(=O)COC(=O)c1c(-c2ccccc2)noc1C	/	0%	-2.3%	/
COc1ccc(S(=O)(=O)N(C(=O)C(C)C)c2ccc3oc(=O)sc3c2)cc1	2	-8%	-3.8%	0%
O=C(Nc1ccccc1NC(=O)c1csnn1)c1csnn1	-3	-7%	0.6%	2%
CSc1nc2sc3c(c2c(=O)[nH]1)CCC(C)C3 (configuration not stated)	6	-13%	0.8%	-18%
COc1ccc(C2C(C(=O)Nc3cccc(C)n3)c3ccccc3C(=O)N2C)cc1OC (configuration not stated)	-1	1%	0.0%	-4%
Cn1c(N)c(C(=O)CNC2CCCCC2)c(=O)n(C)c1=O	/	1%	-1.2%	/
CCC(C)NC(=O)/C=C/c1cccs1 (configuration not stated)	3	3%	6.1%	-23%
CCOC(=O)N1CCN(C(=O)CNS(=O)(=O)c2c(C)cc(C)cc2C)CC1	/	-2%	-0.6%	2%
O=C(O)c1ccc(Cn2cnc3scc(-c4ccccc4)c3c2=O)cc1	11	-12%	0.2%	-11%
CCOC(=O)CC(c1ccc([N+](=O)[O-])cc1)n1c(C)ccc1C (configuration not stated)	-14	19%	-1.4%	-1%
COc1ccc(C(=O)NC2CCN(C(=S)Nc3ccccc3C)CC2)cc1	3	-17%	-0.6%	1%
CN(C)S(=O)(=O)c1cc(C(=O)NCc2ccccc2)c(Cl)cc1Cl	7	5%	0.1%	-1%
O=C1C(Cc2ccccc2)C(c2ccccc2)N1c1ccccc1 (configuration not stated)	-9	16%	3.3%	0%
Cc1ccc(S(=O)(=O)NC(C(=O)Oc2ccc3c(C(F)(F)F)cc(=O)oc3c2)c2ccccc2)cc1 (configuration not stated)	4	?	?	0%
COc1ccc(CCNC(=O)COC(=O)Cn2cnc3c2c(=O)n(C)c(=O)n3C)cc1	/	1%	-0.3%	/
COc1ccc(NC(=O)c2ncn[nH]2)cc1	8	-6%	1.2%	-16%
COc1ccc(-n2nc(C(=O)NCC(=O)N3CCN(c4ccccn4)CC3)c3ccccc3c2=O)cc1Cl	-8	-1%	-0.4%	0%
COc1ccccc1C(=O)OCC(=O)Nc1ccc(Cl)cn1	-7[21.1 µM]	-17%	-1.5%	2%
Cn1nnc(NC(=S)NC(=O)c2ccccc2)n1	-2	1%	1.0%	-13%
COc1ccc(S(=O)(=O)Nc2c(NC3CCCCC3)c3ccccc3oc2=O)cc1Cl	/	1%	1.2%	-1%
O=C(NCCN1CCCC1)c1ccccc1Cl	5	16%	7.0%	-2%
CC1CCCCN1C(=O)COc1ccc(S(=O)(=O)N2CCCC2)cc1[N+](=O)[O-] (configuration not stated)	/	10%	2.6%	/
O=C(O)/C(=C\c1cn(-c2ccccc2)nc1-c1cccnc1)NC(=O)c1ccccc1	4	-18%	-0.1%	4%
CC(C)N(CCn1c(SCC(=O)Nc2cccnc2Cl)nc2ccccc2c1=O)C(C)C	/	-4%	-1.3%	/
CNS(=O)(=O)c1ccc(NC(=O)c2cnn3c(C(F)F)cc(-c4ccccc4)nc23)cc1	2	-13%	2.2%	-15%&-31%
O=C1CCc2cc(NS(=O)(=O)c3cc(F)ccc3F)cc3c2N1CC3	/	15%	1.6%	/
COc1ccc(NC(=O)c2ccc(N3CCCC3=O)cc2)cc1Cl	/	17%	-0.1%	/
CCc1c(Nc2ccccc2Cl)nc(N)[nH]c1=O	/	5%	-2.6%	/
C=C(C)c1cccc(C(C)(C)NC(=O)NCC2COCCO2)c1 (configuration not stated)	7	-16%	0.2%	-2%
CC1CCCN(S(=O)(=O)c2ccc(S(=O)(=O)N3CCC4(CC3)OCCO4)cc2)C1 (configuration not stated)	-2	6%	-0.2%	0%
CCOC(=O)c1c(CSC(=N)N)n(-c2ccccc2)c2cc(Br)c(OC(C)=O)cc12	-22	1%	0.3%	17%
Cc1cc(C)cc(NC(=O)C2CCCN(c3ncccn3)C2)c1 (configuration not stated)	/	-14%	-4.2%	-4%
Cc1nc2ccccc2n1CC(=O)NC1CCCCCC1	-6	0%	-2.9%	10%
COC(=O)[C@@]12CCCN1[C@H](c1ccc(-c3ccc(OC)cc3)cc1)[C@@H]1C(=O)N(C)C(=O)[C@@H]12	/	9%	-0.2%	/
COc1ccc(NCc2ccccc2[N+](=O)[O-])cc1OC	5	7%	-1.2%	-8%
COc1ccc(Cn2nnnc2C(CC(C)C)N2CCC(C(N)=O)CC2)cc1 (configuration not stated)	-5	0%	-1.0%	-35%
Cc1ccc(CNC(=O)CSc2nc3ccsc3c(=O)n2Cc2ccc(C(=O)O)cc2)cc1	4	22%	0.6%	-3%
CON(C)S(=O)(=O)c1cccc(C(=O)NC2CCSc3ccccc32)c1 (configuration not stated)	/	-10%	-2.1%	-7%
